Bioassay records as filed in PubChem.
NPYLR7 ag: activates Aedes aegypti NPYLR7 receptor | HEK293T NPYLR7/Galpha15, GCaMP6s calcium fluorescence | activation, % at 10 µM | hit rate 0.15% among 270,000 | AID 1259423; in the data active = activation above about 40%;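 note: 0% = vehicle and 100% = reference agonist at the receptor; some compounds past the cut are filed as inactive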
NPYLR7 ag max-min: also measured in NPYLR7 ag; calls as there; activation, %; measured here: Max-Min RFU normalised activation; some inactives read as strong as hits;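 span of the calcium signal over five minutes; 0% = vehicle and 100% = native peptide agonist; compound fluorescence can raise it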
* = called active by the depositor; & = joins results of further samples. The list is partial. The share of hits here may be higher or lower than overall.

entry	compound	NPYLR7 ag	NPYLR7 ag max-min
1	c1ccc2oc(N(CC3CCCO3)CC3CCCO3)nc2c1 (stereo not drawn)	5	3
2	CCN(CC)C(=O)c1cc(NC(=O)Nc2cccc(Cl)c2Cl)ccc1N1CCN(c2ccccc2OC)CC1	-3	8
3	Cn1cccc1CN(Cc1ccc(F)cc1)CC(O)COCc1ccco1 (stereo not drawn)	-6	-1
4	Cc1ccc(C=C(C#N)S(=O)(=O)c2ccc(Br)cc2)o1	5	-1
5	CCOC(=O)c1c(N)c(C(=O)c2ccc(C(C)C)cc2)n2ccccc12	-3	-7
6	CCc1nc(C)c(C(=O)N2CCCC(c3nc(-c4ccccc4)no3)C2)o1 (stereo not drawn)	-9	-10
7	NC(=O)NCCc1cccs1	16	5
8	Cc1ccc(NC(=O)CSCc2cc(C)no2)cc1	-13	-17
9	C=CCNC(=O)C(NC(=O)c1cccc(OC)c1)C1CCN(C(=O)c2ccccc2OC)CC1 (stereo not drawn)	9	8
10	CS(=O)(=O)N(c1ccccc1)C1CSC1	-1	-2
11	CC(=O)OC1(CN2CCN(CCc3ccccc3)CC2)CCN(C(C)=O)CC1	14	9
12	CCOc1ccc(-n2c(CSc3ncccn3)nnc2SC(C)CC)cc1 (stereo not drawn)	-6	-3
13	Cc1cccn2c(=O)cc(CN(C)Cc3ccc(Cl)s3)nc12	0	6
14	Cn1nc(CO)c2c1CCNC2	-7	-11
15	O=C(CCCc1nc(-c2ccco2)no1)N1CC2C[C@@H]3CC1C[C@H](C2)C3	-4	-8
16	O=C1c2ccccc2NC2(CCN(Cc3ccc(F)c(F)c3)CC2)N1CCO	0	7
17	O=C(c1ncc[nH]1)N1CCc2c(ncnc2N2CCOCC2)C1	3	0
18	CCc1cc(N2CCN(C(=O)CC(C)(C)C)CC2)n2ncnc2n1	2	-2
19	COc1cc(Cl)c(NCc2c(C)cc(C)c(C(C)=O)c2C)cc1OC	-5	-5
20	COc1ccc2[nH]c3c(c2c1)CCN(C(=O)c1cc(Cl)sc1Cl)C3c1ccc(COC(C)=O)o1 (stereo not drawn)	2	-5
21	COc1ccccc1CC(=O)Nc1nc([C@H]2C[C@H](O)[C@@H](CO)O2)cs1	14	13
22	O=C(Nc1ccc(F)cc1)c1ccc(CSc2nnc(-c3ccncc3)n2-c2ccccc2F)cc1	27	41
23	CC(C)C(NC(N)=O)C(=O)O (stereo not drawn)	-2	-5
24	COC(=O)c1cccc2c(N=O)c(O)[nH]c12	-3	-4
25	CC/C=C(/C)C(=O)Nc1ccc(NC(C)=O)cc1C(=O)O	3	0
26	COCCNC(=O)C(NC(=O)c1cccc(C)c1)C1CCN(C(=O)c2cccc(F)c2)CC1 (stereo not drawn)	14	16
27	Cc1csc(CN(C)C(=O)NCCNC(=O)CC2CCCC2)n1	9	8
28	CCC(=O)Nc1c(-c2cc(=O)oc3ccc(CC)cc23)oc2ccccc12	-2	-3
29	Cc1ccc(CN(C(=O)Nc2ccc(N3CCCC3)nc2)C2CC2)o1	-3	-3
30	Cc1ccc(NC(C)c2c(F)cccc2F)cc1C(N)=O (stereo not drawn)	13	3
31	CC1(C(=O)Nc2ccccc2)CCN1C(=O)C1(c2ccc(Cl)cc2)CC1 (stereo not drawn)	9	10
32	Cc1ccc(C(=O)CSc2nnc(NC(=O)c3ccccc3Br)s2)cc1	0	2
33	Cc1nc(NC(=O)c2cccc(CN3[C@@H]4CC[C@H]3CC(O)C4)c2)nn1C(C)C (stereo partly drawn)	0	-5
34	CCCN1C(=O)C(c2c(-c3ccccc3)[nH]n(-c3ccc(OC)cc3)c2=O)=C(N2CCOCC2)C1=O	3	13
35	Cc1ccc(NC(=O)c2cc(-c3ccc([N+](=O)[O-])cc3)nn2-c2ccccc2Cl)cc1C	20	25
36	Cc1ccc(C(=O)NCCc2nnc3ccc(SCC(=O)Nc4cccc(C)c4)nn23)cc1	-21	-25
37	CC1=C(C(=O)Nc2ccccc2F)C(c2ccccc2F)N(C)C(=O)N1C (stereo not drawn)	-1	-3
38	Cc1ccc2c(c1)NC(=O)c1cc(NC(=O)C3CCCC3)ccc1O2	6	1
39	O=S(=O)(c1ccc(F)cc1)N1CCN(c2nc(-c3cccs3)nc3cc(Cl)ccc23)CC1	0	2
40	Cc1nc(CNC(=O)c2cccc(-c3cn[nH]c3)c2)cs1	5	3
41	Cc1nc2n(n1)C(=O)C(C(c1ccccc1F)N1CCN(c3ccc(F)cc3)CC1)S2 (stereo not drawn)	-8	-12
42	Cc1[nH]cnc1CN(C)C1CCCc2ccccc21 (stereo not drawn)	1	0
43	Nc1nc(N2CCOCC2)[nH]c(=O)c1C(=S)Nc1ccc(Cl)cc1	3	0
44	C=CC[C@@H]1CC=C[C@@H](c2ccccc2)N1C(=O)CSc1ccncc1	15	1
45	O=C(CCc1ccc2c(c1)OCO2)N1CCC2(CCCN(CC3CC3)C2=O)C1 (stereo not drawn)	7	2
46	COc1ccc2oc(=O)c(-c3nnc(-c4cccc(Cl)c4)o3)cc2c1	3	0
47	C=CCn1c(=O)c(C(=O)Nc2ccc(OC)cc2)c(O)c2ccccc21	6	7
48	CC(C)c1ccc(-c2nnc(NC(=O)C3CCN(C(=O)N4CCCC4)CC3)s2)cc1	2	0
49	CN(Cc1n[nH]c2c1CCCCC2)C1CCCNC1 (stereo not drawn)	3	0
50	Cc1ccc2c(c1)N(Cc1ccccc1F)C(=O)C(C)O2 (stereo not drawn)	2	7

Next section:
entry	compound	NPYLR7 ag	NPYLR7 ag max-min
51	CCOC(=O)C1CCN(CC(=O)N2N=C(c3ccc(OC)cc3)CC2c2ccccc2Cl)CC1 (stereo not drawn)	14	17
52	COc1ccc(NC(=O)Cn2nc([N+](=O)[O-])c(Cl)c2C)cc1OC	2	-1
53	CC(=O)Nc1ccc(N=Nc2c(-c3ccc([N+](=O)[O-])cc3)[nH]n(-c3ccccc3)c2=O)cc1	-9	-14
54	COc1ccccc1CN1CN(S(=O)(=O)c2ccc(C)cc2)c2nc3ccccc3nc21	-4	-13
55	Cc1cc(C)nc(N/N=C\c2cc3c(cc2Br)OCO3)n1	-6	-12
56	COc1ccc(NC(=O)CO/N=C(/N)c2nonc2N)cc1Cl	1	-1
57	C/C(=N\N1CCN(C)CC1)c1cc(C)sc1C	-6	711
58	COc1cc2c(cc1O)NC(=O)CC2c1nc(C)ccc1O (stereo not drawn)	15	11
59	CCOC(=O)C(CC)n1cnc2c(nnn2-c2cccc(C)c2)c1=O (stereo not drawn)	-2	-7
60	CCOC(=O)N1CCC(NCc2c(C(=O)N3CCCC3)nc3sccn23)CC1	-7	-14
61	CCOc1ccc(C=C2SC(=O)N(CCNC(=O)c3cccnc3)C2=O)cc1OC	-1	2
62	Cc1ccc(C)c(N(CC(=O)NC(N)=O)C(C)C)c1	17	19
63	O=S1(=O)CC(N2CCN(S(=O)(=O)c3ccccc3)CC2)[C@H](O)C1 (stereo partly drawn)	1	-2
64	COc1cccc(C2(C)NC(=O)N(CC(O)COc3c(C)ccc(C)c3C)C2=O)c1 (stereo not drawn)	-4	-6
65	CC1(C)C2(C(=O)Nc3ccc4[nH]cc(CCN5CCN(c6cccc(C(F)(F)F)c6)CC5)c4c3)CC[C@@]1(C)C(=O)O2	7	-1
66	CCN(CC)C(=O)c1cc(NC(=O)c2cccc(Br)c2)ccc1N1CCCC1	6	15
67	CCc1sc(C(=O)N(C)Cc2ccc(C(=O)NC)cc2)cc1C	9&6	8&3
68	O=C(O)Cc1ccc(-c2ccccc2)cc1	-2	-6
69	CC1CN(C(=O)Nc2ccc(N3CCSCC3)cc2)CCO1 (stereo not drawn)	7	2
70	COc1ccc(-n2nnc3c(SC(C(C)=O)C(=O)N(C)C)ncnc32)cc1 (stereo not drawn)	14	11
71	CSc1nc(=O)c2c(n1C)NC(=O)CC2c1ccccc1C (stereo not drawn)	11	3
72	COc1ccc(C(=O)N(C)CCc2ccc(OC)c(OC)c2)c(OC)c1	-2	-3
73	COc1cc(/C=N\Nc2nc(Nc3ccccc3)nc(N3CCCC3)n2)ccc1OCC#N	-5	-12
74	C[C@@H]1CN(Cc2cn[nH]c2-c2ccc(-c3ccccc3)cc2)C[C@H](C)O1	16	2
75	Cc1ccccc1CSc1nnc(C(C)NS(=O)(=O)c2ccc(F)cc2)n1-c1cc(Cl)ccc1C (stereo not drawn)	-4	-2
76	O=C1c2ccccc2C(=O)N1CSc1nc2ccccc2[nH]1	0	-2
77	CC(=O)OC(C(=O)N1CCN(c2nccc(-c3ccc4c(c3)OCO4)n2)CC1)c1ccccc1 (stereo not drawn)	25	19
78	COc1cccc(CN(Cc2ccc(F)cc2)CC(O)COc2ccc(Cl)cc2)c1 (stereo not drawn)	-5	-4
79	CCCCCn1c(CCC(=O)O)nc2c1c(=O)[nH]c(=O)n2CCCC	0	4
80	Cn1nnnc1SCCNC(=O)CN1CCCCCC1	17	7
81	O=C(CCN1C(=O)COc2ccccc21)NCC(=O)Nc1cc(Cl)ccc1Cl	2	6
82	S=c1[nH]nc(SCc2cccc3ccccc23)s1	-6	-9
83	Cn1cc(CC(=O)N(Cc2cccnc2)CC2CCN(C3CCCC3)CC2)c2ccccc21	-1	-3
84	Cc1c(Cl)cccc1S(=O)(=O)N1CCN(C2c3ccccc3CCc3ccccc32)CC1	-6	-4
85	COc1cccc(CN(Cc2cccn2Cc2cccc(F)c2)C2CCCCC2)c1	-1	4
86	Cc1ccc(C)c(Cn2ccnc2CN(CC2CCCO2)C(=O)c2cccc(F)c2)c1 (stereo not drawn)	8	18
87	CN1CCC2(CC1)CN(C(=O)c1cccc(-n3cccn3)c1)CCN2C	20	12
88	Cc1ccc(C(C)NC(=O)c2cc3c(Cl)c(Cl)ccc3[nH]2)o1 (stereo not drawn)	1	13
89	COc1ccc(NC(=O)C2(C)CCN2Cc2cccc(OC)c2OC)cc1OC (stereo not drawn)	4	0
90	CCC(C)N(Cc1cccn1Cc1cccc(OC)c1)C(=O)CN(CCC(C)C)C(=O)N(C)C (stereo not drawn)	-2	5
91	O=C(NCCS(=O)(=O)N1CCCC1)c1cnn2c1CCCC2	2	-1
92	Fc1cc(F)c(C2c3cccn3CCCN2Cc2cccc(C(F)(F)F)c2)cc1F (stereo not drawn)	21	17
93	COc1ccc(C(=O)N2CCc3nc(Cc4cccc(C)c4)nc(N4CCOCC4)c3C2)cc1	3	3
94	Cc1cccc(C)c1NS(=O)(=O)c1ccc2c(c1)OCCCO2	0	-1
95	Cc1cc(NC(=O)CSc2nc3c(c(=O)n2-c2ccccc2)SCC3)no1	-2	-5
96	CC(=O)N1CCCc2cc(-c3ccccc3CO)ccc21	5	3
97	Cc1ccc(NC(=O)CSc2cn(CC(=O)N3CCOCC3)c3ccccc23)c(C)c1	-6	-11
98	Cc1ccccc1CCN1CCCC(CN(C)C(=O)c2cc(C3CC3)[nH]n2)C1 (stereo not drawn)	9	3
99	O=C(Nc1ccc2c(c1)CN(Cc1cnc(-c3ccccc3)s1)CC2)C1CCCO1 (stereo not drawn)	10	3
100	c1nc(C2CCCNC2)cc(N2CC3C[C@@H]4CC2C[C@H](C3)C4)n1 (stereo partly drawn)	2	0

Reformatted field by field: 4 of the compounds above
#94 Cc1cccc(C)c1NS(=O)(=O)c1ccc2c(c1)OCCCO2
  NPYLR7 ag: 0
  NPYLR7 ag max-min: -1

#95 Cc1cc(NC(=O)CSc2nc3c(c(=O)n2-c2ccccc2)SCC3)no1
  NPYLR7 ag: -2
  NPYLR7 ag max-min: -5

#96 CC(=O)N1CCCc2cc(-c3ccccc3CO)ccc21
  NPYLR7 ag: 5
  NPYLR7 ag max-min: 3

#97 Cc1ccc(NC(=O)CSc2cn(CC(=O)N3CCOCC3)c3ccccc23)c(C)c1
  NPYLR7 ag: -6
  NPYLR7 ag max-min: -11

(cont.)
entry	compound	NPYLR7 ag	NPYLR7 ag max-min
101	CCN(CC(=O)Nc1ccc(OC)cc1)C(=O)NC(C)c1ccc(Cl)c(Cl)c1 (stereo not drawn)	9	0
102	O=[N+]([O-])c1cccc(-c2nc3c4cnn(-c5ccccc5)c4ncn3n2)c1	0	18
103	N[C@@H](C(=O)O)c1ccc(O)c(C(=O)O)c1	-9	-10
104	CN(C)c1ccc(N2C(N)=NC(N)=NC23CCCC3)cc1	19	15
105	CC(C)N1CC(OCc2ccc(OC(F)(F)F)cc2)CN(C(=O)c2cc[n+]([O-])cc2)CC1=O (stereo not drawn)	20	8
106	CC(=O)N(Cc1cccnc1)c1nc2ccc(Cl)cc2s1	-15	-10
107	c1ccc(-c2nnc3ccc(-c4cccc5ncccc45)cn23)cc1	32	29
108	O=C1C2C3CCC(C3)C2C(=O)N1O (stereo not drawn)	-2	-5
109	c1ccc2sc(NN=C3CCCCCC3)nc2c1	4	4
110	Cc1ccc(-n2ncc3c(=O)n(NC(=O)c4ccccc4C(F)(F)F)cnc32)cc1	5	2
111	CCOc1ccc(-c2ccnc(N3CCN(C(=O)c4c(Cl)ccc(C)c4F)CC3)n2)cc1	3	8
112	CC(NC(=O)NCCC1=CCCCC1)c1nnnn1-c1ccccc1 (stereo not drawn)	4	4
113	O=C1/C(=C\c2ccccc2)SC(=S)N1CNc1ccccc1	-7	-13
114	COc1ncc(-c2ccc(C(C)N3CCOCC3)cc2)c(OC)n1 (stereo not drawn)	10	7
115	CC1CN(Cc2ccccc2)c2nc3c(c(=O)n(CCN4CCOCC4)c(=O)n3C)n2C1 (stereo not drawn)	9	3

Some of the entries so far, with values under each structure:
Results follow in this order: NPYLR7 ag	NPYLR7 ag max-min
(15) O=C(CCCc1nc(-c2ccco2)no1)N1CC2C[C@@H]3CC1C[C@H](C2)C3
 : -4	-8
(38) Cc1ccc2c(c1)NC(=O)c1cc(NC(=O)C3CCCC3)ccc1O2
 : 6	1
(7) NC(=O)NCCc1cccs1
 : 16	5
